# Assay outcomes as filed in PubChem BioAssay.
# Kir21 block – blocks the mouse Kir2.1 inward-rectifier potassium channel; P35561; B-score at 10 µM; HEK293-Kir2.1, FluxOR thallium flux fluorescence; active compounds read low; 0.85% of 310,000 active;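 active = fluorescence ratio B-score at or below minus 3 SD of library scores, with starting-brightness B-score within 2 SD, cut at about -4.2 in these data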;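 also: channel flux triggered by added potassium and thallium sulfate stimulus; B-score of peak minus minimum fluorescence over baseline after thallium stimulus; more negative B-score means stronger Kir2.1 block with less thallium influx; some compounds called inactive have numbers as strong as hits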
# Target sequence (P35561 whole entry, looked up): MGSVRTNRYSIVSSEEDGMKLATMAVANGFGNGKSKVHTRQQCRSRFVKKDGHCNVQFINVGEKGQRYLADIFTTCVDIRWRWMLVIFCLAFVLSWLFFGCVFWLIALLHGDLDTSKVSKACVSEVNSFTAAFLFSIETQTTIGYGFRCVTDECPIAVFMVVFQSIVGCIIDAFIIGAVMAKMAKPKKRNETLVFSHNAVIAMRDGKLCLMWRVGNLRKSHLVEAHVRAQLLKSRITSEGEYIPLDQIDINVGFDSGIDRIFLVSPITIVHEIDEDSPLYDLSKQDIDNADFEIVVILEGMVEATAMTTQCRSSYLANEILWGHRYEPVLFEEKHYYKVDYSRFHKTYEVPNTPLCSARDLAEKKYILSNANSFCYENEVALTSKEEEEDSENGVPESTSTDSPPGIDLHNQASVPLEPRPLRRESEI
# An asterisk follows results filed as active. A portion of the library; most or all hits stand in other tables.
SMILES,Kir21 block
COCCNC(=S)N1CCN(C/C=C/c2ccccc2)CC1,0.62
NS(=O)(=O)c1ccc(NC(=O)COC(=O)c2cnc(Cl)c(Cl)c2)cc1,0.95
COc1ccc(NC(=O)CCCC(=O)c2ccccc2)cc1OC,0.33
COc1ccccc1CCCNC(=O)C1CCC(=O)N(CCCN2CCCC2=O)C1 (stereo unspecified),1.43
COc1ccc(S(=O)(=O)NCCCN2CCCC2=O)cc1OC,0.41
CC(C)(C)c1ccc(SCCc2ccncc2)cc1,-0.18
CCOC(=O)Cc1csc(SCC(=O)Nc2nccs2)n1,0.06
COc1ccc(Nc2nc(C)nc3c2nnn3Cc2ccccc2)cc1OC,0.67
Cc1cccc(S(=O)(=O)N(CC(=O)Nc2ccccc2C)Cc2ccco2)c1,-0.07
CC(=O)SCC(=O)N=c1sc2cc(F)ccc2n1C,-0.76
O=C1OC(OC(=O)c2ccccc2Br)C(N2CCOCC2)=C1Cl (stereo unspecified),-0.83
CC(C)C(=O)NNC(=O)C1CC1(c1ccccc1)c1ccccc1 (stereo unspecified),1.03
Cc1ccc(S(=O)(=O)NNC(=O)c2sccc2-n2cccc2)cc1,-0.18
CCOC(=O)/C(=C\c1cccc(O)c1)c1nc2sc(C)c(C)c2c(=O)[nH]1,1.9
CC(C)CN(C(=O)COC(=O)c1nc(Cl)ccc1Cl)C1CCS(=O)(=O)C1 (stereo unspecified),0.46
Cc1cc(N(C)C)c(C#N)c(N2CCCCC2)n1,-1.12
CCOC(=O)C1(C)NC(c2ccc(O)cc2)C2C(=O)N(c3ccccc3)C(=O)C21 (stereo unspecified),-0.78
CCC(C)c1ccccc1NC(=O)C1CCCO1 (stereo unspecified),-1.33
Cc1ccc(-c2csc(NC(=O)C3=NN(C4CCS(=O)(=O)C4)C(=O)CC3)n2)cc1 (stereo unspecified),2.1
Cc1ccc(CNC(=O)Cn2cnc3cc([N+](=O)[O-])ccc3c2=O)cc1,0.02
COc1cc(C(=O)Nc2ccc3c(c2)OCCO3)c(-n2cnnn2)cc1OC,0.93
Cc1cccc(NC(=O)CS(=O)CC(=O)Nc2cnc3ccccc3c2)c1C (stereo unspecified),-0.44
CN(C)CCCn1c(SCCN2C(=O)c3ccccc3C2=O)nc2ccccc2c1=O,-3.23
CCOC(=O)c1c(-c2ccc(C)cc2)csc1NC(=O)c1cc2ccccc2oc1=O,-1.19
CC(C)Cn1c(SCC(=O)N2CCCCC2)nc2ccccc2c1=O,-0.2

# More compounds follow:
SMILES,Kir21 block
COC(=O)c1[nH]c2ccccc2c1NC(=O)/C=C/c1ccc2c(c1)OCO2,-0.28
Clc1ccc(-c2cnc3ccccc3n2)cc1,1.36
Cc1ccc(NC(=O)NC(=O)CSc2nnnn2C)c(C)c1,-0.12
CC(C)(C)OC(=O)N1CCC(c2c(C(=O)N3CCN(C4CCCCC4)CC3)cnn2-c2ccc(F)cc2)CC1,1.02
COc1cc(NC(=O)c2cc(-c3ccco3)on2)cc(OC)c1OC,0.02
O=C(NC1CCN(C(=O)Nc2ccccc2Cl)CC1)c1ccccc1,0.43
Cc1noc(C)c1COc1ccc(CC(=O)NC2CCCCCC2)cc1,2.28
COC(=O)c1ccccc1NC(=O)COC(=O)c1ccco1,-3.18
O=C(Nc1ccccc1C(=O)N1CCOCC1)c1cc2ccccc2o1,-1.32
O=C(CSc1nnc2ccccn12)Nc1cccc(-c2nc3ccccc3s2)c1,0
COc1ccccc1Nc1ncnc2c1oc1ccccc12,-0.6
COc1ccc(C(CNC(=O)CSc2ccc(Br)cc2)N2CCOCC2)cc1 (stereo unspecified),2.16
NC(=O)c1nsc(C(=O)N(c2cccc(F)c2)C(C(=O)NC2CCCC2)c2ccco2)c1N (stereo unspecified),-1.76
O=C(O)c1ccccc1Nc1ccnc(Cl)n1,1.83
O=C(CCCOc1ccccc1)N1CCN(c2ccccn2)CC1,2.03
Cc1ccc(S(=O)(=O)n2ccc(OC(=O)c3cccs3)n2)cc1,1.25
CS(=O)(=O)Nc1ccc(C(=O)NCc2ccco2)cc1,-1.19
O=C(COc1nsnc1N1CCOCC1)Nc1ccc([N+](=O)[O-])cc1,-1.41
Nc1nc(NCC(=O)O)nc(NC2CCCCC2)c1[N+](=O)[O-],0.38
Cc1ccccc1Cc1c(C)nc2nc(SCC(=O)NCc3ccco3)nn2c1C,-0.67
CC(=O)c1ccc(S(=O)(=O)N2CCN(S(=O)(=O)c3ccccc3C(F)(F)F)CC2)cc1,-1.47
Cc1ccc(CNC(=O)C2C3C=CC(C3)C2C(=O)O)cc1 (stereo unspecified),-0.39
Cc1nn(CC#N)c(=O)n1-c1ccccc1F,1.25
CCCN1C2CCCC1CC(NC(=O)c1ccccc1)C2 (stereo unspecified),-2.01
Cc1ccccc1N(CC(=O)N/N=C/c1ccc(Cl)cc1)C(=O)c1ccccc1,0.42

# In the list so far, 2 have bromine:
SMILES,Kir21 block
O=C1OC(OC(=O)c2ccccc2Br)C(N2CCOCC2)=C1Cl (stereo unspecified),-0.83
COc1ccc(C(CNC(=O)CSc2ccc(Br)cc2)N2CCOCC2)cc1 (stereo unspecified),2.16

# Returning to the listing, repeating the 6 entries before the break.
SMILES,Kir21 block
Cc1ccccc1Cc1c(C)nc2nc(SCC(=O)NCc3ccco3)nn2c1C,-0.67
CC(=O)c1ccc(S(=O)(=O)N2CCN(S(=O)(=O)c3ccccc3C(F)(F)F)CC2)cc1,-1.47
Cc1ccc(CNC(=O)C2C3C=CC(C3)C2C(=O)O)cc1 (stereo unspecified),-0.39
Cc1nn(CC#N)c(=O)n1-c1ccccc1F,1.25
CCCN1C2CCCC1CC(NC(=O)c1ccccc1)C2 (stereo unspecified),-2.01
Cc1ccccc1N(CC(=O)N/N=C/c1ccc(Cl)cc1)C(=O)c1ccccc1,0.42
O=C(COC(=O)C1CC(=O)N(c2ccc3c(c2)OCCO3)C1)Nc1ccc2c(c1)CCC2 (stereo unspecified),2.26
O=C(CN1C2CCCC1CC(NC(=O)C1CCCCC1)C2)Nc1ccccc1 (stereo unspecified),-0.69
Cc1ccc(-c2nc(SCC(=O)NCCN3C(=O)CSC3=O)[nH]c2-c2ccc(C)cc2)cc1,0.33
Cc1ccc(NC(=O)c2ccco2)c(NC(=O)Cc2cccs2)c1,-1.64
CCCCn1c(N)c(N(CC)C(=O)c2cc(S(=O)(=O)N3CCCCCC3)ccc2OC)c(=O)[nH]c1=O,2.73
CCOc1ccc(C(=O)Nc2cccc3ncccc23)cc1Cl,-0.14
O=C(NNC1=NCCC1)c1ccc(Br)cc1,-0.76
C=CCOc1cccc(C2C(C(=O)c3ccco3)=C(O)C(=O)N2CCN(CC)CC)c1 (stereo unspecified),0
O=C(CCS(=O)(=O)c1cccc2nsnc12)NCc1ccccc1,-0.66
Cc1ccc(OC(=O)CN2C(=O)c3ccccc3C2=O)cc1C,0.53
O=C(/C=C/c1ccc2c(c1)OCO2)NCc1cn2cc(Cl)ccc2n1,0.62
O=C(O)c1cc(NN=Nc2cccc([N+](=O)[O-])c2)cc([N+](=O)[O-])c1,-0.78
COCCN(C(=O)COC(=O)c1c(-c2ccccc2)noc1C)c1c(N)n(Cc2ccccc2)c(=O)[nH]c1=O,-0.04
Cc1ccc(C(C)NC(=O)c2ccncc2)c(C)c1 (stereo unspecified),-0.19
O=C(CSc1nnc(-c2ccncc2)o1)NCc1ccccc1,0.98
CN(C#N)c1nc(N2CCOCC2)nc(N2CCOCC2)n1,0.04
CCCc1[nH]nc2c1C(c1ccc(OC(=O)N3CCOCC3)c(OC)c1)C(C#N)=C(N)O2 (stereo unspecified),-0.86
COc1ccc(CN2CCN(c3ccccc3OC)CC2)cc1OC,0.94
O=S(=O)(c1ccccc1)N1CCC(N2CCCCCC2)CC1,0.42
COC(=O)c1cc(C(=O)c2cccc(Cl)c2Cl)cn1C,0.17
CSc1nc(N)nc(SCC(=O)C(C)(C)C)c1C#N,0.45
Nc1nc(SCc2ccc3c(c2)OCCO3)n[nH]1,3.17
Cc1cc(C)n(C2CC(=O)N(c3cccc(Cl)c3)C2=O)n1 (stereo unspecified),1.44
Cc1ccc2c(COC(=O)CNC(=O)c3ccccc3)cc(=O)oc2c1,2.04
CC(NCc1ccco1)C(=O)N1CCc2ccccc2C1 (stereo unspecified),0.32

# Reprinted at random: three records from the list, in no set order.
SMILES,Kir21 block
COCCN(C(=O)COC(=O)c1c(-c2ccccc2)noc1C)c1c(N)n(Cc2ccccc2)c(=O)[nH]c1=O,-0.04
Nc1nc(SCc2ccc3c(c2)OCCO3)n[nH]1,3.17
CCCCn1c(N)c(N(CC)C(=O)c2cc(S(=O)(=O)N3CCCCCC3)ccc2OC)c(=O)[nH]c1=O,2.73

# (list continues)
SMILES,Kir21 block
COc1ccc(CC2=C(O)c3ccccc3C(=O)C2=O)cc1,1.9
COc1c(F)c(F)c(C(=O)Nc2ccc3oc(-c4ccncc4)nc3c2)c(F)c1F,-1.96
O=C(Nc1cccnc1)/C(N=Nc1ccc(Cl)c(C(F)(F)F)c1)=C(\O)c1ccccc1,-0.11
CC(C)CC(NS(=O)(=O)c1ccc2c(c1)oc(=O)n2C)C(=O)NC1CCCc2ccccc21 (stereo unspecified),-0.02
N#CCC(=O)Nc1sc2c(c1C(N)=O)CCCC2,-2.84
CCOc1ccc(C(=O)COC(C)=O)cc1,2.8
COc1cc(NC(=O)c2ccccc2-n2cnnn2)cc(OC)c1,1.89
COc1ccc(COC(=O)N/N=C(\C)CC(=O)Nc2c(C)cc(C)cc2C)cc1,0.03
O=C(COC(=O)COc1ccccc1[N+](=O)[O-])NC1CCCC1,-0.06
COC(=O)C1CCN(C(=O)COC(=O)C2CCN(S(=O)(=O)c3ccc4c(c3)OCCO4)CC2)CC1,0.71
CCOc1ccc(CNC(=O)Cn2nc(C)c3c(C)n(-c4ccc(C)cc4)nc3c2=O)cc1,0.42
COc1ccc(C(=O)N(c2ccc(C)cc2)C2C=CS(=O)(=O)C2)cc1OC (stereo unspecified),-0.1
Cc1cc(C)c2cc(CN(Cc3nnnn3Cc3ccc(F)cc3)C3CCCC3)c(=O)[nH]c2c1,1.34
O=C(CN(C(=O)Cn1nnc(-c2cccs2)n1)c1cnc2ccccc2c1)NCC1CCCO1 (stereo unspecified),-2.73
CC(C)(C)OC(=O)C1C(=O)CC(C)(O)C(C(=O)OC(C)(C)C)C1c1cccnc1 (stereo unspecified),0
C=CCN1C(c2ccccc2)=CS/C1=C(\C#N)c1nnc2n1CCCCC2,1.4
COc1ccc2oc(-c3ccccc3)c(C(=O)O)c2c1,0.37
NC(=O)C1CCN(C(=O)C2CCC(=O)N(C3CCCCCC3)C2)CC1 (stereo unspecified),-0.39
Cc1nn(Cc2c(Cl)cccc2Cl)c(C)c1NC(=O)c1cc(C(C)C)on1,-0.49
COc1cc(CCC(=O)NCc2ccc(S(N)(=O)=O)cc2)cc(OC)c1OC,0.33
Cc1ccc(C)c(NC(=O)CCn2cnnn2)c1,0.28
CCCN1CCC(=O)N([C@H](CSc2ccc(OC)cc2)Cc2ccccc2)CC1,-0.81
Cc1ccc(-c2csc3ncnc(SCC(=O)c4ccc5c(c4)OCCO5)c23)cc1,-1.19
COc1ccc(CN2CCCC(C(=O)N3CCCCC3)C2)c(OC)c1 (stereo unspecified),1.86
COC(=O)c1sccc1NC(=O)Nc1cc(C)ccc1C,1.25

# Continued.
SMILES,Kir21 block
COc1ccc([C@@]2(O)c3c(ccc(CC=C(C)C)c3O)NC(=O)[C@@H]2OC)cc1,-1.75
COC(=O)c1sc(NC(=O)CSc2nnnn2-c2ccc(C)cc2C)nc1C,0.12
O=C1Nc2ccc(Br)cc2C1(O)Cc1ccccn1 (stereo unspecified),-0.19
Cc1ccc(NC(=O)c2nnn(-c3ccc4c(c3)OCCO4)c2N)cc1,0.19
O=C1C2C3C=CC(C4CC34)C2C(=O)N1/N=C/c1ccc([N+](=O)[O-])s1 (stereo unspecified),1.1
O=C(O)C/C(=C\c1cc(Cl)c2c(c1)OCO2)c1nc2ccccc2s1,-0.04
CC(=O)C1=C(O)C(=O)N(c2cccc(Br)c2)C1c1ccc(Br)cc1 (stereo unspecified),0.12
CCCc1cc(=O)[nH]c(SCC(=O)Nc2nonc2N)n1,-0.37
COc1cc(C(=O)NCCCc2ccccc2)cc(OC)c1OC,0.48
CCOC(=O)N1CCN(C(=O)c2cc3c(-c4ccc(Cl)cc4)nn(C)c3s2)CC1,-0.18
CN1CCN(S(=O)(=O)c2ccc(NC(=O)C3CCCCC3)cc2)CC1,0.35
CC(C)CC(=O)Nc1nnc(S(=O)(=O)N2CCCCCC2)s1,-1.14
CC(=O)N/C(=C\c1ccccc1)C(=O)OCc1ccccc1,0.04
COc1ccc(NC(=S)N2CCC(Cc3ccccc3)CC2)cc1OC,-0.26
Cc1ccc(/C=C/c2onc(C)c2S(=O)(=O)N2CCC(C(=O)N3CCN(C)CC3)CC2)cc1,-1.66
O=[N+]([O-])c1ccc(S(=O)(=O)NCCc2ccncc2)cc1,0.73
Cc1ccc(C)c(-n2c3nc(=O)n(C)c(=O)c-3cc3ccccc32)c1,1.58
COc1ccc2c(=O)c(C(=O)NCCc3ccc(OC)c(OC)c3)c[nH]c2c1,1.23
Cc1cc(C)c(S(=O)(=O)N(C)CC(=O)NCc2ccccn2)c(C)c1,-0.6
O=C1C2ON(c3ccccc3)C(c3ccncc3)C2C(=O)N1c1ccccc1 (stereo unspecified),0.8
CCOC(=O)c1cc(N)cc([N+](=O)[O-])c1,1.85
CC(=O)Nc1cccc(N2C(=O)CC(Cc3ccccc3)C2=O)c1 (stereo unspecified),1.15
CC(C)c1ccc(N(CC(=O)NN=C2CCN(C)CC2)S(=O)(=O)c2ccccc2)cc1,1.96
O=C(C(Cc1ccccc1)n1cccc1)N1CCN(c2ncccn2)CC1 (stereo unspecified),-0.82
Nc1nn(-c2ccccc2)nc1C(=O)OCc1ccccc1F,0.3
Cc1cc(Cl)ccc1OCC(=O)NCc1ccncc1,0.66
N#CC1=C(N2CCOCC2)/C(=C\c2ccccc2)CC1,-2.17
O=C1COc2ccc(N3C(=O)c4ccccc4C3=O)cc2N1,0.02

# 3 entries from above, with tabs.
Compound	Kir21 block
CN(C#N)c1nc(N2CCOCC2)nc(N2CCOCC2)n1	0.04
CCCc1[nH]nc2c1C(c1ccc(OC(=O)N3CCOCC3)c(OC)c1)C(C#N)=C(N)O2 (stereo unspecified)	-0.86
COc1ccc(CN2CCN(c3ccccc3OC)CC2)cc1OC	0.94
